High-throughput results from PubChem.
PINK1 modulator – A Quantitative High throughput Screen to Identify Chemical Modulators of PINK1 Expression | PINK1 immunofluorescence, high-content cytometry, 24 h | AID 624263, 2012 | 0.2% of 410,000 active | Potency, µM (series often up to 76.6 µM), without a hit: at the top dose activation (PINK1 increase), usual class: activators; active = well fitted activation curve with a large enough effect; inconclusive = small, poorly fitted or top-dose-only effect; inactive = flat fitted curve, though single readings scatter; cell line not stated here;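 also: potency is read from the fitted curve at half-maximal effect; % of control where 0% means no effect; nearly all actives have a fitted effect of over 65% in size; a mitochondrial uncoupler was the plate control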
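Compound titrations (5 concentrations, 24 h) on a stable cell line; DMSO and CCCP controls. Endpoint: fixed-cell PINK1 immunofluorescence with mitochondrial, cell and nuclear markers, scanned by microplate cytometer.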
Six1-Eya2 inh – qHTS Assay for Inhibitors of the Six1/Eya2 Interaction | Homeobox protein SIX1 (Homo sapiens) + Protein phosphatase EYA2 (Homo sapiens), … | AlphaScreen GST-Six1/His-Eya2 binding, biochemical; active compounds read low; control for the full effect not named in the record | activity change, % (test concentration not listed) | 0.56% of 360,000 active; in the data active = activity change below about -65%; inconclusive = about -30% to -65%; inactive = above about -30%; also: % is scaled to controls: 0 for no effect and ±100 for the full control effect
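GST-Six1 + His-Eya2 (5X stock: 250/500 nM); Tris pH 8.0, 300 mM NaCl, 0.05% BSA, 0.02% Tween 20; GSH donor/Ni acceptor beads; 1 h 37 °C dark; AlphaScreen readout.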
TRPV1 PAM – HTS Assay for Compounds that Act as Potentiators of the Vanilloid Receptor 1; 0.02% of 320,000 active; AID 540277, 2011; TRPV1-expressing cells, Fluo-8 calcium influx, capsaicin EC20 potentiation; host cell line not named in the record; control for the full effect not named in the record; Transient receptor potential cation channel subfamily V member 1 (Homo sapiens), Q8NER1; potentiation, % at 8.33 µM; active means potentiation above 80%; inconclusive means 30% to 80%; inactive means below 30%; also: 0% is about no effect
Target sequence (Q8NER1 whole entry, looked up): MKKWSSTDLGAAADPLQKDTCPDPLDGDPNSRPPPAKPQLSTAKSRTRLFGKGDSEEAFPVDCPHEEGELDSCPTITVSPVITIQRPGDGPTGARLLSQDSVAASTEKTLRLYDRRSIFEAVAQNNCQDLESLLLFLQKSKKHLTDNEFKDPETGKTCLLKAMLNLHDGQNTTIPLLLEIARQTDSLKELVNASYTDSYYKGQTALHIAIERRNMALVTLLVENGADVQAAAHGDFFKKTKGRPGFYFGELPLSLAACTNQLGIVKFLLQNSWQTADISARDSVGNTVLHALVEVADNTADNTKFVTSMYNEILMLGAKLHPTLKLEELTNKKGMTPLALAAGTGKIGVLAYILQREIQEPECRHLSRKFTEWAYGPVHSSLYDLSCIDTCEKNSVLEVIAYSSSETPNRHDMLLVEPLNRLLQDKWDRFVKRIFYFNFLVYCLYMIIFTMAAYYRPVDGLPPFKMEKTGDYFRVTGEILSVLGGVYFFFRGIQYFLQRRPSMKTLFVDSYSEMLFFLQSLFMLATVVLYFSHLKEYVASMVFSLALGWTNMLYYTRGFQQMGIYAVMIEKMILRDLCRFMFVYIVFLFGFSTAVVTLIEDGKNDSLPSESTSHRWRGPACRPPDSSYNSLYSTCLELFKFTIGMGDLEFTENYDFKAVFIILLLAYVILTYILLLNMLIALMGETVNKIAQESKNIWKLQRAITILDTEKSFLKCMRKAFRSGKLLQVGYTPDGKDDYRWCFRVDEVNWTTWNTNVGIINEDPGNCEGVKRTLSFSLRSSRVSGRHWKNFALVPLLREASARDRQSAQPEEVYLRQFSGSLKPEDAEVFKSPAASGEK
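Fluo-8 calcium influx in TRPV1-expressing cells, kinetic read (ex 480/em 520 nm). Compound added and read 3 min for agonist activity, followed by capsaicin at EC20 final and 2 min further read for enhancement.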
D2 potentiator – Beta-Arrestin HTS for Positive Allosteric Modulators of the Human D2 Dopamine Receptor: Potentiators; potentiation, % (no concentration beside the values); AID 624464, 2012; D(2) dopamine receptor (Homo sapiens), P14416; 0.23% of 360,000 active; DiscoveRx D2 beta-arrestin cells, luminescence, 90 min; 100% = 57 uM dopamine signal; active = potentiation of 50% or more; inconclusive = 30% to 50%; inactive = 30% or less;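 also: compound concentration not given in the record; tested on top of an EC20 dose of dopamine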
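PathHunter beta-arrestin assay in DiscoveRx D2 cells. Compounds were added with an EC20 of dopamine (50 nM final) for 90 min at 37 deg C. Luminescence was read 1 h after detection reagent, with 57 uM dopamine as the EC100 control.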
CtBP-E1A inh – qHTS Assay for Inhibitors of the CtBP/E1A Interaction | AlphaScreen GST-E1A/His-CtBP binding, 1536-well; active compounds read low; control for the full effect not named in the record | CtBP / adenovirus E1A interaction (AlphaScreen) | activity change, % (test concentration not listed) | 0.49% of 340,000 active; in the data active means activity change below about -65%; inconclusive means about -30% to -65%; inactive means above about -30%; also: % is scaled to controls: 0 for no effect and ±100 for the full control effect
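Homogeneous bead-based format: GST-tagged E1A captured on glutathione donor beads, His-tagged CtBP on nickel acceptor beads; compounds precede bead addition by 2 h at 37 °C.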
D2 agonist – Beta-Arrestin HTS for Positive Allosteric Modulators of the Human D2 Dopamine Receptor: Agonists. DiscoveRx PathHunter D2 beta-arrestin, luminescence, 90 min; 100% = 57 uM dopamine signal. 0.084% of 360,000 active. activation, % (concentration not given with the values). D(2) dopamine receptor (Homo sapiens), P14416. AID 624465, 2012; in the data active = activation above about 40%; inconclusive = about 15% to 40%; inactive = below about 15%; also: compound concentration not given in the record; the text of the record calls up to 30% inactive
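DiscoveRx PathHunter D2 beta-arrestin cells (2,100/well) attached overnight, then compound-stimulated 90 min at 37 C in HBSS/10 mM HEPES/0.1% Tween-20 buffer; beta-galactosidase complementation read by luminescence after 1 h at ambient temperature. Dopamine 57 uM final (EC100) as control.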
Sfp inh – qHTS Assay for Inhibitors of Bacillus subtilis Sfp phosphopantetheinyl transferase (PPTase); 4'-phosphopantetheinyl transferase ffp (Bacillus subtilis), Q9F4F7; Biochemical Sfp PPTase activity, qHTS; Potency, µM, for the others: max response, negative = inhibition, actives largely listed as inhibitors; 3.5% of 310,000 active; AID 1490, 2009; active = well fitted inhibition curve with a large enough effect; inconclusive = small, poorly fitted or top-dose-only effect, or another doubt; inactive = no such curve, though single readings can be large or run the other way;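 also: the enzyme is Sfp with the accession as filed and its product quenches rhodamine fluorescence; potency is read from the fitted curve at half-maximal effect; 0% = enzyme reaction without inhibitor and -100% = no enzyme wells; top concentration of the series not given in the record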
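Buffer: 50 mM Hepes-Na pH 7.6, 10 mM MgCl2, 0.01% Nonidet P-40, 0.01% BSA. Enzyme 15 nM, pre-exposed to compound 15 min; substrates then added and fluorescence change tracked over 30 min.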
* = called active by the depositor; ? = inconclusive; · = no result given; & = joins results of further samples; [ ] = another dose, or the depositor's remark.

Below each SMILES: D2 potentiator	CtBP-E1A inh	Six1-Eya2 inh	PINK1 modulator	Sfp inh	D2 agonist	TRPV1 PAM
- Cc1ccc2c(c1)N(CC(=O)N(Cc1ccccn1)Cc1ccco1)C(=O)C(C(C)C)O2 (stereo not given)
 : -23.4	-6.1	-9.9	-0.9%	-6.9%	-5.1	-1.1
- COC(=O)C1C(c2ccccc2)C(C(=O)OCc2ccco2)C1c1ccccc1 (stereo not given)
 : -10.5	12.8	4.4	-4.0%[38.3 µM]	-10.2%	1.8	-4.7
- O=C(NC1CCCCCC1)c1cccc(N2CCCC2=O)c1
 : -14.0	3.2	0.5	-0.5%	18.7%	-1.9	5.1
- Cc1ccc(N(C(=O)CNC(=O)c2ccco2)C(C(=O)NC2CCCC2)c2cccnc2)cc1 (stereo not given)
 : -12.3	0.2	1.7	-0.4%	13.4%	-2.5	17.4
- C[C@H](CO)N1C[C@H](C)[C@H](CN(C)Cc2cccc(F)c2)Oc2ncc(Br)cc2C1=O
 : -16.5	-12.4	18.4	-1.6%	·	-6.0	·
- O=C(OCc1nnc(-c2ccccc2)o1)C1CCN(S(=O)(=O)c2cccs2)CC1
 : -5.5	1.1	3.6	-2.2%	14.2%	-1.1	-5.8
- CN(C)CCO[C@@H](c1ccc(Cl)cc1)c1ccccn1
 : -56.0	·	-3.0	0.6%	4.3%&-10.0%	-4.6	-39.2
- O=C(CN1CCC(O)(c2cccc(F)c2)CC1)NCCc1c[nH]c2ccccc12
 : -24.2	·	-10.5	-1.0%	13.0%	-4.5	-5.1
- CC1=C(C(=O)OCc2ccccc2)C(c2cccc([N+](=O)[O-])c2)NC(=O)N1CCCCCC(=O)O (stereo not given)
 : -39.3	-6.5	-0.9	0.1%	-1.0%&-1.2%	-0.7	18.0
- Cc1ccccc1C(=O)Nc1ccnn1C1CCN(C2CCSCC2)CC1
 : -26.3	9.6	3.4	0.8%	11.1%	-4.6	4.7
- O=C(c1ccco1)N1CCN=C1SCc1c(F)cccc1Cl
 : -27.9	-6.0	-4.2	-2.1%	9.0%	-1.9	-13.0
- CCCC1(C(=O)OCC)NC(c2ccc(N(C)C)cc2)C2C(=O)N(c3ccc(OCC)cc3)C(=O)C21 (stereo not given)
 : -6.0	-15.2	-18.5	-0.4%	13.8%	0.2	-2.3
- CS(=O)(=O)N(Cc1ccccc1)c1ccc(C(=O)NCC2CCCO2)cc1 (stereo not given)
 : -4.9	35.3	22.6	-3.4%	5.9%	-3.5	-12.9
- O=c1cccc(-c2ccccc2)[nH]1
 : 26.1	0.0	4.5	1.2%	-5.6%	-1.0	11.0
- Oc1ccc(C=Nc2cccc3ncccc23)c(O)c1
 : 25.5	0.2	-5.0	-0.9%	-4.6%	-1.8	1.2
- CCOC(=O)c1cc2n(c1C)-c1ccccc1C2=O
 : -0.3	-1.3	2.0	-6.9%[38.3 µM]	23.1%	-0.4	-2.9
- CCOc1ncccc1C(=O)OCC(=O)N1c2ccccc2CC1C (stereo not given)
 : 0.6	1.1	-0.3	3.3%	·	-2.0	-5.0
- CC(C)CC1NC(=O)N(CCCCN2C(=O)c3ccccc3C2=O)C1=O (stereo not given)
 : -11.3	-0.3	5.9	2.4%	7.3%	-3.6	-22.5
- CCCn1c2c(c(O)c(C(=O)Nc3ncccc3C)c1=O)CCCC2
 : -7.7	-3.5	0.0	1.4%	-15.0%	-1.6	1.4
- CC(C)CNC(=O)C1(C)CCCN1Cc1ccc(OC(F)(F)F)cc1 (stereo not given)
 : -5.2	10.3	4.1	6.1%	·	2.0	·
- O=C(Nc1ccc(N2CCCC2)cc1)c1cccc(F)c1
 : 6.8	-4.6	-21.1	8.9%	-25.8%	-1.4	-7.3
- Cc1ccc2cc(CCNC(=O)CC(C)C)c(=O)[nH]c2c1
 : -7.6	-2.8	-7.0	1.5%	17.1%	-4.2	17.0
- O=C(CSc1nnc(NCc2ccccc2)s1)c1ccco1
 : 5.7	-0.7	7.6	-1.4%	10.2%	-0.4	13.4
- O=c1[nH]c2ccccc2n1Cc1ccc(F)cc1
 : -2.3	7.2	6.4	0.5%	4.9%	-6.1	-10.5
- Cn1ncc2cc(NC(N)=S)ccc21
 : -4.0	5.7	1.6	0.3%	-12.5%	-2.3	-10.1
- CCN(CC)S(=O)(=O)c1ccc(C)c(NC(=O)COC(=O)CCC(=O)c2cccs2)c1
 : -15.9	0.3	-12.3	6.8%	·	-3.8	5.4
- C=CCn1c(COc2ccccc2)nnc1SCC(=O)Nc1ccc(S(N)(=O)=O)cc1
 : 8.1	-8.7	6.9	5.0%	10.6%	-1.0	4.1
- COc1ccc(OC)c(/C=C2/Sc3ccccc3C2=O)c1
 : 15.5	-0.6	0.3	8.1%	-13.5%	0.3	15.5
- COc1ccc(-c2nnc(SCC(=O)Nc3c(Cl)cc(Cl)cc3C(=O)O)o2)cc1
 : -2.8	0.3	5.9	2.8%	·	0.3	·
- O=C(NCCCN1CCN(c2ccccc2)CC1)C1CCCN(c2ncnc3c2nc2n3CCCCC2)C1 (stereo not given)
 : -29.2	-2.7	-3.9	0.2%	26.4%	-0.4	0.0
- CN(C)c1cccc(C(=O)N(C)C2CCCN(Cc3ccccc3F)C2)c1 (stereo not given)
 : -27.4	·	-4.9	3.5%	-4.2%	-3.2	5.7
- CC(C)C[C@H](NC(=O)c1nc[nH]c1C(=O)N1CCN(C(=O)OC(C)(C)C)CC1)C(=O)OC(C)(C)C
 : -74.0	0.0	0.5	2.3%	29.0%	-3.2	-3.5
- Cc1nc2c(sc(=S)n2Cc2ccco2)c(=O)n1CC(=O)Nc1cc(F)ccc1F
 : -4.7	·	3.7	3.2%	-29.2%	-1.4	-4.5
- N#CN(Cc1ccccc1)Cc1ccccc1
 : -1.2	9.1	0.9	-1.5%	3.5%	-4.6	-5.3
- COc1ccc(/C=C(\NC(=O)c2ccc(OCC(C)C)cc2)C(=O)OCc2ccco2)cc1
 : -7.9	-14.3	-7.0	-1.4%	-4.2%	-4.6	-7.0
- O=C(/C=C/c1ccccc1)NCC(=O)N/N=C/c1ccccc1[N+](=O)[O-]
 : -16.2	1.1	-8.8	-1.9%	14.8%	0.3	3.3
- CCOC(=O)c1ccc(N2C(=O)c3n[nH]c(C)c3C2c2cccnc2)cc1 (stereo not given)
 : 6.1	2.8	2.7	0.7%	16.9%	-1.6	-11.3
- O=C(O)CCc1ccc(-c2cccs2)n1NC(=O)c1cccs1
 : -7.9	2.1	-10.5	-1.3%	-18.7%	4.3	-0.2
- COc1cccc(C(=O)NCc2nnc(SCC(=O)Nc3nccs3)n2-c2cccc(C)c2)c1
 : 0.1	-1.6	-0.2	4.3%[38.3 µM]	5.1%	-2.1	14.6
- CSCCC(NS(=O)(=O)c1ccccc1F)C(=O)N1CCCCCC1 (stereo not given)
 : -5.5	-10.1	0.6	-0.8%	-5.3%	4.2	?
- COc1ccc(N(Cc2cc3cc(OC)ccc3[nH]c2=O)C(=O)c2cccnc2)cc1
 : -5.0	-1.7	-0.6	4.2%	7.9%	0.9	8.5
- O=C(CN1CCN(c2ccccn2)CC1)Nc1ccc(Cl)c(C(F)(F)F)c1
 : -3.5	9.2	2.1	-1.2%	-0.4%	0.2	1.6
- COc1ccc2nc(SCC(=O)N3CCCCCC3)c(C#N)cc2c1
 : -3.2	-1.8	0.3	1.9%	0.5%	0.0	-15.4
- COc1ccc(NS(=O)(=O)NC(=O)c2cn(C)c3ccccc23)cc1
 : -2.3	·	-1.9	2.3%	18.3%	-0.9	2.6
- CCCCN1C[C@H](c2ccc(OC)cc2)[C@@H](CC(=O)Nc2ccc(OC)cc2)C1=O
 : 1.6	5.0	-2.9	-0.8%	·	-5.6	·

Entries of single compounds from above. Order of values: D2 potentiator	CtBP-E1A inh	Six1-Eya2 inh	PINK1 modulator	Sfp inh	D2 agonist	TRPV1 PAM
Entry for N#CN(Cc1ccccc1)Cc1ccccc1 = -1.2	9.1	0.9	-1.5%	3.5%	-4.6	-5.3
Entry for COc1cccc(C(=O)NCc2nnc(SCC(=O)Nc3nccs3)n2-c2cccc(C)c2)c1 = 0.1	-1.6	-0.2	4.3%[38.3 µM]	5.1%	-2.1	14.6

Additional compounds:
Below each SMILES: D2 potentiator	CtBP-E1A inh	Six1-Eya2 inh	PINK1 modulator	Sfp inh	D2 agonist	TRPV1 PAM
- CC(C)CC(=O)Nc1ccccc1-c1nnn(CC(=O)N2CCc3ccccc3C2)n1
 : -3.8	-2.8	-7.7	-0.6%	19.6%	-0.5	-16.3
- Cc1ccc(C)c(NC(=O)C(OC(=O)c2ccc(CO)cc2)c2ccccc2)c1 (stereo not given)
 : -40.8	3.3	0.5	4.5%	·	-4.7	-23.1
- CCN(CCNC(=O)c1ccc2nc(-c3ccccc3NC(C)=O)c(=O)[nH]c2c1)c1ccccc1
 : -2.5	-0.6	-7.3	22.7%	19.7%	-4.2	-7.7
- CCC[C@@H](OS(N)(=O)=O)[C@@H](Cc1ccccc1)C(=O)OCC
 : -2.4	1.5	0.7	1.2%	17.9%	0.7	-6.2
- O=C(NCCCn1ccnc1)c1cc2c(s1)CCCC2
 : -19.9	-20.7	-15.8	-1.3%	19.0%	-3.4	-1.1
- CCCCN(C)C(=O)Cn1nc(Cc2ccncc2)c2ccccc2c1=O
 : -5.3	-0.2	-1.0	-0.3%	13.7%	-1.3	-3.5
- Cc1ccc(C)c(C(=O)N2CCC(n3nccc3NC(=O)C3CC3)CC2)c1
 : 27.0	18.1	2.2	2.2%	6.6%	0.9	2.2
- Cc1ccc(Oc2nnc(-c3ccc(C)cc3)c3ccccc23)cc1
 : -17.8	0.0	24.7	14.4%	17.7%	-2.6	-5.8
- Cc1ccn2cc(CCNS(=O)(=O)c3ccc4c(c3)OCCO4)nc2c1
 : -2.6	11.0	5.0	1.0%	35.3%[activator]	1.1	22.9
- Cc1ccc(C(c2nnnn2C2CCCCC2)N2CCN3CCCC3C2)cc1 (stereo not given)
 : -15.8	-17.3	2.4	-4.7%	-1.7%	-4.6	-19.9
- O=[N+]([O-])c1ccc(N2CCOCC2)cc1O
 : -7.4	0.0	25.6	2.5%	12.1%	-3.1	25.2

No enrichment for hits. Share with any hit: about 3.7%.
